MT1-MMP reporter = inhibitors of MT1-MMP promoter transcription, cell-based, luciferase reporter, luminescence (AID 618); MT1-MMP promoter luciferase reporter cells, luminescence; calls from a first round at 10 µM; hits with a dose series show EC50 in µM; 0.62% of 87,000 active;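 active = over half of the reporter light lost at 10 µM or EC50 under 50 µM; inactive = the rest and hits that failed the dose series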;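 note: actives suppress MT1-MMP promoter-driven transcription so potencies describe inhibitors; HT1080 fibrosarcoma cells; overnight exposure; toxic or luciferase-blocking compounds were not removed from the actives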
WNV protease inh = WNV NS2B-NS3 proteinase inhibition | P06935 | AID 577 | z-score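 (tested at a level between 10 and 100 µM)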 | WNV NS2B-NS3 protease, fluorogenic substrate Ex360/Em465; hits give low values | 0.18% of 65,000 active;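 active = z-score at -3 or under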;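 note: score is relative to mean and spread of the compound wells of a plate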
Target sequence (P06935 1371-1501 limits assumed): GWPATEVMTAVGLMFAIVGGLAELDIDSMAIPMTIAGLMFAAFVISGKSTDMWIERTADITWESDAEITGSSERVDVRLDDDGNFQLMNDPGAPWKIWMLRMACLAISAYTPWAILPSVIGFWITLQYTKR
Target sequence (P06935 1502-1679 limits assumed): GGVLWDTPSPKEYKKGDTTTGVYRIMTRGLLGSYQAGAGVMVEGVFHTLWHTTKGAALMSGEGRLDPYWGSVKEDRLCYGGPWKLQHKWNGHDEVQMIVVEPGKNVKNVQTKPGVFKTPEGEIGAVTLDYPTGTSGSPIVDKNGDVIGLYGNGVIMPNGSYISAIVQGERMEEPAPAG
Hsc70 = Hsc70 inhibitors, probe displacement, primary screen, biochemical, fluorescence polarization (AID 568) | one-dose displacement, % at 20 µM; IC50 in µM for titrated hits | Hsc70 fluorescence polarization, probe displacement; higher % means a stronger effect; strong numbers were not always called active | 83,000 tested, under 10 active;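 active = displacement above 50% without optical interference and an IC50 on retest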;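 note: ATPase domain with a fluorescein-tagged ATP probe; 0% = vehicle and 100% = excess ADP; read after one hour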
* marks the source's active call; other numbers are inactive results; i = inactive; nt = no result given. These rows are one share of the data; count on the stated rates, not on these rows.

Below each SMILES: WNV protease inh | MT1-MMP reporter | Hsc70
- c1ccc(Cn2nnc3c(NCCN4CCOCC4)ncnc32)cc1
 : -0.59 | i | -2.2%
- CC1(C)C2CCC13CS(=O)(=O)N[C@@H]3C2 (stereo partly specified)
 : 0.0064 | i | 1.9%
- COC(=O)c1coc(-c2ccc(OC)cc2)c1C(=O)OC
 : nt | i | -3.2%
- Oc1cccc(/C=N/c2c(-c3ccco3)nc3ccccn23)c1
 : 4.1 | i | 1.3%
- CCCCOC(=O)c1ccc(NS(=O)(=O)c2cc(-c3nnnn3CC)ccc2OC)cc1
 : 2.2 | i | 2.2%
- O=C(Nc1ccc(S(=O)(=O)N2CCCCC2)cc1)c1cnccn1
 : -1.2 | i | -1.1%
- O=C(CN1C(=O)CSC1=O)N1CCc2ccccc2C1
 : -0.7 | i | 0.1%
- COc1ccc(NC(=O)CN2C(=O)c3cccc4cccc2c34)c(OC)c1
 : nt | i | 4.6%
- Cc1cc(OCC(=O)Nc2ccncc2)cc(C)c1Br
 : nt | i | -3.3%
- CC(=O)CC(C)(C)S(=O)(=O)c1ccc(NC(C)=O)cc1
 : nt | i | 5.3%
- CCOC(=O)c1c(COc2ccccc2)oc2ccc(O)cc12
 : 1.4 | i | -11%
- CCOc1ccc(C(=O)NCC(=O)OCC(=O)Nc2ccccc2OC)cc1
 : nt | i | 1.5%
- COCC(=O)c1[nH]c2ccccc2c1C
 : 1.3 | i | -2.5%
- COc1ccc(Cc2nc(C(=O)Nc3ccc(F)cc3)cs2)cc1
 : nt | i | -8.9%
- CC(C)(C)NC(=O)CSc1nncn1-c1ccccc1
 : -1.1 | i | 5.3%
- CC(=O)N1CCN(c2ccccc2NC(=O)COc2ccc(Br)cc2)CC1
 : nt | i | 2.6%
- CC(=O)c1cnc(N(C)C)s1
 : nt | i | 2.3%
- Cc1cnc(NC(=O)CSc2ccc(Cl)cc2)s1
 : nt | i | -1.1%
- CN(C)c1ccc(C=Nc2ccc(N(C)C)cc2)cc1
 : 0.08 | i | -15%
- CCSc1nnc(NC(=O)C2CCCCC2)s1
 : 0.29 | i | -0.3%
- COc1ccc(CNC(=O)C2CCN(C(=O)[C@@H](CC(C)C)NC(=O)OC(C)(C)C)CC2)cc1
 : -0.34 | i | 1.3%
- CC(=O)Cc1ccccc1OC(=O)c1ccco1
 : -0.2 | i | 0.8%
- COc1ccc(NC(=O)Cn2c(=O)sc3ccccc32)c(OC)c1
 : -0.99 | i | -1.5%
- COC(=O)c1ccccc1NC1OC(=O)c2ccccc21 (stereo unspecified)
 : 0.82 | i | -2.2%
- O=C(NCc1cccs1)c1cc(-c2ccccc2)on1
 : 0.03 | i | -0.8%
- COc1ccc(CNc2nc3nc4c(c(=O)n3[nH]2)CCC4)cc1
 : nt | i | 1.8%
- Fc1ccc(C2CC(c3ccco3)n3ncnc3N2)cc1 (stereo unspecified)
 : -0.42 | i | 8.1%
- CCN(CC)CCCN1C(=O)C(=O)/C(=C(/O)c2cnn(-c3ccccc3)c2C)C1c1ccncc1 (stereo unspecified)
 : -1 | i | -0.1%
- COC(=O)CN(c1ccc(C(C)C)cc1)S(=O)(=O)c1c(C)[nH]c(=O)[nH]c1=O
 : -0.93 | i | 2.4%
- O=C(O)C1CC(=O)N(CCOc2ccccc2)C1 (stereo unspecified)
 : -0.88 | i | -3.0%
- CCN(CC)CCCN1C(=O)C(O)=C(C(=O)c2ccc(C)o2)C1c1ccco1 (stereo unspecified)
 : 1.4 | i | 4.0%
- CCNC(=O)NC1(C(=O)Nc2ccc3c(c2)OCCO3)CCCCC1
 : nt | i | -4.2%
- CC1(C)C2CCC1(CS(=O)(=O)NCc1ccc(C(=O)O)cc1)C(=O)C2 (stereo unspecified)
 : 1.1 | i | 0.2%
- CCCn1c(SCC(=O)Nc2nnc(C(C)C)s2)nc2c1c(=O)n(C)c(=O)n2C
 : -0.17 | i | 3.3%
- CCOC(=O)c1[nH]c(C)c(CN(CCc2ccccc2)C(=O)CCC(=O)O)c1C
 : -1.2 | i | 1.8%
- O=C(NCc1ccc2c(c1)OCO2)c1cc2ncc(Br)cn2n1
 : -0.94 | i | 2.3%
- Cc1nc2cc(-c3cccc(Cl)c3)nn2c(N2CCN(C(=O)c3ccco3)CC2)c1C
 : 0.95 | i | -3.7%
- CCN(CC)S(=O)(=O)c1ccc(C(=O)NCC(c2cccs2)N2CCOCC2)cc1 (stereo unspecified)
 : 2.1 | i | -5.4%
- Cc1nn(CCC(=O)NNC(=S)Nc2ccc(F)cc2)c(C)c1[N+](=O)[O-]
 : nt | i | -1.4%
- Cc1cccc(C(=O)Nc2ccc(O)cc2)c1
 : -0.53 | i | -1.0%
- CCN(CC)C(=O)C1CCCN(Cc2ccccc2C(F)(F)F)C1 (stereo unspecified)
 : 0.00072 | i | 4.7%
- COc1ccc(Nc2nc(N3CCCC3)nc3ccccc23)c(OC)c1
 : -1.2 | i | 3.8%
- Fc1ccc(-c2nnc(-c3ccc(Cl)cc3Cl)o2)cc1
 : 0.12 | 8.2µM* | 1.9%
- CCc1c(C)nc(SCCOc2ccc(OC)cc2)[nH]c1=O
 : -0.31 | i | 9.8%
- CCc1nnc(NC(=O)CSc2nc3c(cc2C#N)CCCC3)s1
 : 0.55 | i | 11%
- CN1CCN(c2ccc(NC(=O)c3ccc4c(c3)OCO4)cc2)CC1
 : -0.43 | i | 2.8%
- COc1ccc(-c2nnc(SCc3cccc(C#N)c3)o2)cc1
 : -0.66 | i | 5.9%
- CCOC(=O)c1c(C)[nH]c(C(=O)OCC(=O)NC2CCS(=O)(=O)C2)c1C (stereo unspecified)
 : nt | i | 5.5%
- Cc1oc(-c2ccccc2F)nc1CS(=O)(=O)CC(=O)N1CCN(Cc2ccccc2)CC1
 : 0.17 | i | 1.6%
- CCOC(=O)c1ccccc1NC(=O)c1ccc2c(=O)n3c(nc2c1)CCCCC3
 : -0.48 | i | -3.4%
- O=C(O)CCCCCNC(=O)CCn1nnc2ccccc2c1=O
 : 0.94 | i | 1.3%
- CCOc1ccc(OCCSc2nc3ccccc3[nH]2)cc1
 : nt | i | 1.1%
- COc1ccc(OC)c(S(=O)(=O)n2nc(-c3ccccc3)cc2N)c1
 : 1.8 | i | 0.9%
- O=[N+]([O-])c1ccc(N2CCN(c3nc(-c4ccc(Cl)cc4)cs3)CC2)cc1
 : nt | i | -7.2%
- CC(=O)Nc1sc2c(c1C(N)=O)CCC2
 : nt | i | 1.3%
- C=CCn1c(Cc2ccc(OC)cc2)nnc1SCc1nc2ccccc2c(=O)[nH]1
 : 0.91 | i | -2.7%
- COCCNC(=O)c1cn(C)c2ccc(S(=O)(=O)N(C)C3CCCCC3)cc2c1=O
 : -0.1 | i | -0.4%
- O=C(Nc1cccc(Oc2c(F)c(F)c(F)c(F)c2F)c1)N1C[C@@H]2C[C@@H](C1)c1cccc(=O)n1C2
 : -0.03 | i | -2.6%
- CCC(C)C(NC(=O)c1ccccc1NC(=O)c1ccco1)C(=O)NC1CCCCC1 (stereo unspecified)
 : -0.37 | i | -6.5%
- COCCn1c(=S)[nH]c2cc(C(=O)NCC3CCCO3)ccc2c1=O (stereo unspecified)
 : 0.61 | i | -0.4%

(list continues)
Below each SMILES: WNV protease inh | MT1-MMP reporter | Hsc70
- Cc1cc(C)c(C#N)c(SCC(=O)CC(=O)OC(C)C)n1
 : -1.1 | i | 4.1%
- Cc1nc2sc3c(c2c(=O)n1/N=C/c1ccco1)CCCC3
 : 0.36 | i | -2.6%
- O=C(NCCc1ccccc1)C1CCN(S(=O)(=O)N2CCCC2)CC1
 : -0.5 | i | -5.9%
- CC(=O)c1cc(-c2ccccc2)[nH]c1N1CCCC1
 : 0.67 | i | -4.6%
- Clc1ccc(-c2nnc3sc(Cc4cccs4)nn23)c(Cl)c1
 : -0.01 | i | -0.1%
- CCCSc1nc(O)c(C2OC(=O)c3c2ccc(OC)c3OC)c(=O)n1C (stereo unspecified)
 : 0.99 | i | -3.8%
- N/C(=N\OC(=O)c1cccc(Cl)c1)c1cccnc1
 : nt | i | 3.6%
- CC(C)CCN1CC(C(=O)N2CCN(c3ccc(F)cc3)CC2)CC1=O (stereo unspecified)
 : -0.87 | i | -3.4%
- CC(C)Cc1nc(N2CCC(C(N)=O)CC2)c2nnn(Cc3ccccc3)c2n1
 : -1 | i | -1.5%
- CCOC(=O)c1sc2nc(NC(=O)COc3ccccc3)sc2c1C
 : 0.51 | i | 4.1%
- N#Cc1cc2c(=O)n3ccccc3nc2n(CC2CCCO2)c1=N (stereo unspecified)
 : nt | i | 3.4%
- CCOC(=O)N1CCN(c2c(-c3ccc(C(C)C)cc3)c(=O)c2=O)CC1
 : -0.53 | i | -4.9%
- O=C1C2CCCN2C(c2cccc(Br)c2)N1c1ccc(F)cc1 (stereo unspecified)
 : -0.26 | i | -6.8%
- CCC(=O)c1ccc(OC(=O)c2ccc(Br)o2)cc1
 : 0.38 | i | -4.0%
- COc1ccc(/C=N/NC(=O)Nc2nonc2N)cc1
 : nt | i | -2.6%
- Cc1c(O)c(CN2CCCC(C)C2)cc2c3c(c(=O)oc12)CCC3 (stereo unspecified)
 : 2.6 | i | 3.3%
- O=c1nc2sc3ccccc3n2c(=O)n1-c1cccc(Cl)c1
 : nt | i | -3.2%
- CC(=O)Nn1cnc2c(c1=O)C1(CCCC1)Cc1ccccc1-2
 : 0.57 | i | -1.6%
- CCOC(=O)NC(c1cccc(Cl)c1)C1CCCCCC1=O (stereo unspecified)
 : nt | i | -5.1%
- COc1ccc(NC(=O)c2ccc(=O)oc2)cc1
 : 0.93 | i | 7.0%
- CCC(CC)C(=O)Nc1cccc(S(=O)(=O)c2cccc(NC(=O)C(CC)CC)c2)c1
 : nt | i | -0.7%
- CN1CCN(C(=O)CN2C(=O)CC(C)(C)S(=O)(=O)c3ccccc32)CC1
 : -0.25 | i | -1.1%
- CC1(C)NC(=O)NC2(C)NC(=O)NC(C)(C)C12 (stereo unspecified)
 : 0.63 | i | 4.1%
- Cn1c(=O)c(=O)n(C)c2cc(S(=O)(=O)N3CCN(Cc4ccccc4)CC3)ccc21
 : 0.33 | i | 4.3%
- CCCCOc1ccc(S(=O)(=O)n2c(C)nc3ccccc32)cc1
 : 0.14 | i | 1.7%
- COc1ccc(C)cc1NS(=O)(=O)c1ccc(Br)s1
 : nt | i | -5.2%
- Cc1ccc(OCC(=O)NCc2ccccn2)cc1
 : -0.07 | i | 6.1%
- COc1cccc(OC)c1OCCCc1c(C)n[nH]c1C
 : 1.1 | i | -3.7%
- O=C1c2sc3nc4ccccc4n3c2C(=O)N1c1ccccc1Cl
 : 1.8 | i | -1.6%
- COc1ccc2nc(NC(=O)CSc3nc4ccccc4o3)sc2c1
 : -0.54 | i | -6.6%
- CCOC(=O)c1ccc(Oc2nc(NC)nc(SC)n2)cc1
 : -1.5 | i | -8.3%
- CC(=O)Nc1cc(N2C(=O)CCC2=O)ccc1Cl
 : 1 | i | 0.1%
- O=C(O)c1cc2cccc(S(=O)(=O)N3CCOCC3)c2cc1O
 : -0.65 | i | 3.1%
- Cc1ccc(-c2noc(CCC(=O)NCCN3CCOCC3)n2)cc1
 : -0.9 | i | -7.4%
- CC1CNCCN1S(=O)(=O)c1cccc2cnccc12 (stereo unspecified)
 : 0.05 | i | 6.8%
- CC(C)N1C(=O)CCC1C(=O)NCCc1ccc(Cl)cc1 (stereo unspecified)
 : 0.04 | i | 4.0%
- Cc1ccc(-n2c(CCC(=O)O)ccc2-c2cccs2)cc1C
 : nt | i | 0.7%
- CC(C)(C)c1nc(SCC(=O)NCc2ccco2)c2ccccc2n1
 : 1 | i | -3.0%
- COc1ccccc1-c1c(C)nn2c(NCCN3CCCC3)cc(C)nc12
 : 0.81 | i | -0.4%
- O=C1CCCN1c1ccc(S(=O)(=O)N2CCC(c3ccccc3)CC2)cc1
 : -0.7 | i | 4.9%
- O=C(/C=C/c1ccccc1)N1CCN(Cc2nc3ccccc3c(=O)[nH]2)CC1
 : nt | i | -0.7%
- Cc1ccc(-c2csc(SCC(=O)Nc3cc(C)on3)n2)cc1
 : nt | i | -1.2%
- CN=C(Nc1cc(C)nn1CCC#N)c1ccccc1
 : -0.42 | i | -2.3%
- COc1ccc(NC(=O)C2CCN(c3nnnn3-c3ccccc3)CC2)cc1
 : nt | i | 6.0%
- Cc1ccc(OCC(=O)Nc2ccc(N3CCOCC3)cc2)cc1
 : -1.1 | i | -1.7%

Taken from above.
CC(C)CCN1CC(C(=O)N2CCN(c3ccc(F)cc3)CC2)CC1=O (stereo unspecified) in Hsc70 is listed with -3.4%
Cc1cccc(C(=O)Nc2ccc(O)cc2)c1 in Hsc70 is listed with -1.0%
Cc1cc(C)c(C#N)c(SCC(=O)CC(=O)OC(C)C)n1 in WNV protease inh is listed with -1.1

Remaining list, next part
Below each SMILES: WNV protease inh | MT1-MMP reporter | Hsc70
- CCOc1ccc2[nH]c(=O)c(CN(CC3COCCO3)C(=O)C3CC3)cc2c1 (stereo unspecified)
 : 1 | i | -3.9%
- O=C(Nc1ccc2nc(-c3ccc4nc[nH]c4c3)[nH]c2c1)c1cccs1
 : nt | i | -4.3%
- O=C(NCc1nc2ccccc2[nH]1)c1cccc(S(=O)(=O)N2CCCC2)c1
 : nt | i | 0.7%
- CC(=O)NC(Cc1ccccc1)C(=O)N1CCN(C(=O)c2cccs2)CC1 (stereo unspecified)
 : -2.4 | i | -12%
- c1ccc(CCN2CN(CCCN3CCOCC3)c3nc4ccccc4n3C2)cc1
 : 0.37 | i | -3.5%
- CCC1(CC)Cc2ccccc2C(Nc2c(C)n(C)n(-c3ccccc3)c2=O)=N1
 : nt | i | -3.1%
- OC(COCc1ccc2c(c1)OCO2)CN1CCN(Cc2ccccc2)CC1 (stereo unspecified)
 : nt | i | -7.4%

Screening data (PubChem)
